StopGo reporter: lowers the luciferase signal of an FMDV 2A StopGo reporter. human cells with a luciferase reporter of 2A StopGo recoding; control for the full effect not named in the record. Potency, µM (highest dose often 57.9 µM), without a hit: top-dose signal change, negative = less light. 1.2% of 410,000 active; active = well fitted falling curve with a large enough effect; inconclusive = small, poorly fitted or top-dose-only effect; inactive = no such curve, though single readings can be large or run the other way; tested in HEK293T cells; note: % is set by controls: 0 for no effect and ±100 for the full control effect; nearly all actives have a fitted effect of over 45% in size; luciferase light after 4 h
NS1 function inh: influenza NS1 inhibition; S. cerevisiae slowed by influenza A NS1, growth recovery by OD600; Potency, µM (highest dose often 46.1 µM), without a hit: top-dose activity, positive = more growth; 0.4% of 270,000 active; AID 2326; note: actives are rising curves; nearly all actives have a fitted effect of over 50% in size
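OD600 was taken as the measure of yeast growth restored by compound in an NS1-expressing S. cerevisiae strain. Cells had been washed out of glucose medium and diluted 1:100 into galactose -URA medium, pH 6.0.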
LASV entry inh: Lassa virus entry inhibition; AID 540256; Potency, µM (highest dose often 37.9 µM), inactives show at the highest dose activity change, negative = inhibition, usual class: inhibitors; 1.2% of 300,000 active; Lassa virus pseudotype entry inhibition, cell reporter; control for the full effect not named in the record; active means well fitted inhibition curve with a large enough effect; inconclusive means small, poorly fitted or top-dose-only effect, or effect the other way; inactive means flat fitted curve, though single readings scatter; tested in HEK293 cells; note: % is set by controls: 0 for no effect and ±100 for the full control effect; nearly all actives have a fitted effect of over 50% in size; luciferase read-out
Cruzain inh noDet: inhibitors of Trypanosoma cruzi cruzain without detergent | P25779 | 2.3% of 200,000 active | purified cruzain, Z-FR-AMC fluorescence, no detergent | Potency, µM, for the others: max response, negative = inhibition, hits mostly inhibitors; active = well fitted curve in the direction sought with a large enough effect; inconclusive = small, poorly fitted or top-dose-only effect, or another doubt; inactive = no such curve, though single readings can be large; an effect the other way counts as inactive or inconclusive;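 note: plate controls were enzyme without inhibitor for no effect and buffer without enzyme for full effect; nearly all actives have a fitted effect of over 40% in size; top concentration of the series not given in the record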
Target sequence (P25779 123-467 limits assumed): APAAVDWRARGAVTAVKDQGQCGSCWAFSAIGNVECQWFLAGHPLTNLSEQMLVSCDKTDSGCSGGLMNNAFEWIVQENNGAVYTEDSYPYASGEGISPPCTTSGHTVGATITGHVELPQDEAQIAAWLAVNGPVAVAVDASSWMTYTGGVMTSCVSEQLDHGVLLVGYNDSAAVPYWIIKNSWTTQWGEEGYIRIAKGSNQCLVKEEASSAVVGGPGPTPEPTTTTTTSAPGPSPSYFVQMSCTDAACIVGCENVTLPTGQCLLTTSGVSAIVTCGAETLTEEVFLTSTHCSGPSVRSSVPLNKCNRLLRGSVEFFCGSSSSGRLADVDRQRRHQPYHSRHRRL
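Purified cruzain at 1.5 nM, pre-incubated 15 min with compound at room temperature in 100 mM sodium acetate pH 5.5, 5 mM DTT, 0.00005% Triton X-100. Reaction started with 2 uM Z-FR-AMC; AMC fluorescence increase over 60 s gives rate.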
Marburg entry inh: blocks Marburg virus binding to or entry into cells; Marburg virus pseudotyped entry inhibition, cell reporter; control for the full effect not named in the record; about a third of the inactives were read at about 46 µM; Potency, µM (series often up to 37.8 µM), inactives show at the top dose activity change, negative = inhibition, hits mostly inhibitors; 1.8% of 300,000 active; AID 540276; active = well fitted inhibition curve with a large enough effect; inconclusive = small, poorly fitted or top-dose-only effect, or effect the other way; inactive = flat fitted curve, though single readings scatter; tested in HEK293 cells; about a fifth of its hits are not listed in these tables; note: % is set by controls: 0 for no effect and ±100 for the full control effect; luciferase read-out
RE007 growth inh: less growth of the S. pombe RE007 Vpr strain; AID 651644; Potency, µM (highest dose often 92.2 µM), for the others: at the highest dose activity change, negative = less growth; 0.21% of 360,000 active; S. pombe RE007 Vpr strain, BacTiter-Glo ATP luminescence, 24 h; control for the full effect not named in the record; active = well fitted falling curve with a large enough effect; inconclusive = small, poorly fitted or top-dose-only effect; inactive = no such curve, though single readings can be large or run the other way;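 note: % is set by controls: 0 for no effect and ±100 for the full control effect; nearly all actives have a fitted effect of over 50% in size; the assay follows cell death caused by Vpr and the record does not say whether a fall means rescue or toxicity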
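Fission yeast RE007 carrying one integrated HIV-1 vpr copy, seeded at OD 0.01 in PMG+AL medium with 23 nL pinned compound. Grown 24 h at 30 degrees; viability read by BacTiter-Glo luminescence after 5 min.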
SARS PLP yeast: SARS-CoV PLP inhibition in yeast; S. cerevisiae expressing SARS-CoV PLpro, growth rescue; control for the full effect not named in the record; Potency, µM (titrated, usually from 32.9 µM), for inactives: at the top dose activity, positive = growth rescue; 0.19% of 330,000 active; note: 0% is about no effect; nearly all actives have a fitted effect of over 55% in size; growth read by luminescence after 48 h
Cruzain Triton: cruzain (T. cruzi) inhibition with detergent; purified cruzain, Z-FR-AMC fluorescence, 0.01% Triton; 0.43% of 200,000 active; Potency, µM, for inactives: max response, negative = inhibition, actives largely listed as inhibitors; active = well fitted curve in the direction sought with a large enough effect; inconclusive = small, poorly fitted or top-dose-only effect, or another doubt; inactive = no such curve, though single readings can be large; an effect the other way counts as inactive or inconclusive;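 note: plate controls were neutral wells for no effect and buffer without enzyme for full effect; nearly all actives have a fitted effect of over 40% in size; top concentration of the series not given in the record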
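Purified cruzain (1.5 nM final) was preincubated with compounds for 15 min at room temperature in 100 mM sodium acetate pH 5.5, 5 mM DTT, 0.01% Triton X-100. Reaction started with 2 uM Z-FR-AMC; AMC fluorescence change over 60 s gave activity.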
The depositor's hits bear a star; u = inconclusive; x = no result given; [ ] = dose if it differs, or a comment. Unless noted, calls come from the whole dose curve; as a rule, active means well fitted rising curve with a large enough effect; inconclusive means small, poorly fitted or top-dose-only effect; inactive means no such curve, though single readings can be large or run the other way. Potency is the fitted concentration of half-maximal effect.

SMILES | StopGo reporter | NS1 function inh | LASV entry inh | Cruzain inh noDet | Marburg entry inh | RE007 growth inh | SARS PLP yeast | Cruzain Triton
Cc1ccc(S(=O)(=O)Nc2cccc(-c3ccc(N4CCCCCC4)nn3)c2)cc1C | 68.1%[activator] | 4.0% | x | x | x | -14.4% | 2.6% | x
Cc1ccc(S(=O)(=O)N2CC(O)C[C@H]2C(=O)OCC(=O)c2ccccc2)cc1 (stereo not given in full) | 1.6% | -8.8% | 11.3% | 11.8% | 14.3% | 19.5% | 4.6% | -3.5%
Cc1cccc(NS(=O)(=O)c2cccc(C(=O)NCC3(N4CCCCC4)CCCCC3)c2)c1 | 29.5% | x | -28.7% | x | u | 0.3% | 1.8% | x
Cc1cc(Cl)ccc1NC(=O)CS(=O)(=O)c1cccc2nsnc12 | -3.1% | x | u | -9.0% | x | x | x | -2.6%
O=C(NCc1ccco1)c1cccn2c(=O)c3c4c(sc3nc12)CCCC4 | -15.4% | -19.1% | -17.4% | 25.9% | -13.6% | u | -6.8% | 0.7%
CCOc1ccccc1N(CC(=O)NC1CCCCC1)C(=O)CCC(=O)Nc1cc(C)ccn1 | 15.0% | -19.2% | x | x | -6.3%[46.1 µM] | 16.9% | 0.5% | x
COC(=O)c1c(NC(=O)c2ccccc2C(=O)O)sc2c1CCC2 | 3.3% | 27.2% | -0.3% | x | -1.0% | 0.7% | 6.5% | x
COc1ccc(-c2cc3nc(C)c(CCC(=O)N4CCN(c5ccc(F)cc5)CC4)c(C)n3n2)c(OC)c1 | 0.0% | x | 21.2%[46.1 µM] | u | 1.1%[46.1 µM] | x | x | 1.8%
Cc1cccc(NC(=O)/C(C#N)=C/c2ccc[nH]2)c1C | 34.4%[activator] | 4.1% | x | x | x | 4.4% | 9.9% | x
CC(CNC(=O)COC(=O)c1cccnc1Cl)c1ccccc1 (stereo not given) | -7.6% | x | -7.1% | x | 8.4%[46.1 µM] | 4.2% | u | x
CC(=O)NCCC(=O)Nc1cc(S(=O)(=O)N2CCOCC2)ccc1N1CCCC1 | -16.1% | x | 18.3% | x | -10.8% | -0.4% | 1.2% | x
COc1cccc(CNC(=O)c2cccc(S(=O)(=O)N3CCN(C)CC3)c2)c1 | -8.5% | -2.5% | 8.6% | x | 16.0% | -16.4% | -4.9% | x
Cc1ccc(S(=O)(=O)Nc2ccc(C(N)=O)cc2)cc1[N+](=O)[O-] | 11.6% | -1.4% | -11.8% | x | 3.7%[46.1 µM] | 0.3% | 0.8% | x
O=C(CN1CCCC1)N1CCCc2ccccc21 | 2.5% | 4.7% | 13.0% | x | -2.3%[46.1 µM] | -26.6% | 0.9% | x
N#CC1=C(N)Oc2cc3ccccc3cc2C1c1cccs1 (stereo not given) | -21.2% | 5.2% | u | -14.2% | u | 0.8% | 0.1% | -7.9%
O=C(O)CCSC(=S)N1CCOCC1 | -16.3% | 0.9% | x | x | x | 5.7% | -1.0% | x
CC(=NC(C)C)C1=C(O)CCC1=O | 0.0% | u | -12.1% | 0.0% | 17.8% | 12.5% | u | -0.6%
O=C(NCCc1c[nH]c2ccccc12)C1CCC(Cn2c(=S)[nH]c3ccccc3c2=O)CC1 (stereo not given) | -5.4% | 2.5% | u | u | u | 18.3% | -6.9% | -4.9%
COc1ccc(/C=C/C(=O)Nc2ccccc2C(=O)O)cc1 | -23.1% | x | u | x | 1.58µM* | -13.0% | -1.6% | x
CCOc1cc(CNCCCN2CCOCC2)cc(Cl)c1OCC(=O)NC(C)(C)C | -9.3% | 2.1% | u | x | u | -5.0% | 0.1% | x
Cc1ccnc(N2CCC(C(=O)Nc3ccc(Oc4ccccc4)cc3)CC2)n1 | -18.7% | -3.9% | 2.3% | u | -15.1% | -8.3% | 2.0% | 0.8%
Cc1ccc(CNC(=O)CCSCc2cnn(-c3ccccc3)c2-n2cccc2)cc1 | -8.0% | x | 3.4%[46.1 µM] | 9.5% | u | x | x | -2.5%
Cc1ccc(N(CC(=O)N/N=C/c2ccc(OC3CSC3)cc2)S(=O)(=O)c2ccccc2)cc1 | x | 13.1% | u | u | u | -3.7% | -3.3% | -0.8%
CC(=O)Oc1cc2oc(=O)c3c(c2cc1Cl)CCC3 | x | -53.2% | -0.9% | 26.1% | 16.2% | -21.6% | -11.5% | -6.1%
CCn1c(=N)n(CC(O)c2ccco2)c2ccccc21 (stereo not given) | u | 2.5% | -7.4% | -7.9% | 1.9% | 1.1% | 7.1% | -0.3%

Remaining list, next part
SMILES | StopGo reporter | NS1 function inh | LASV entry inh | Cruzain inh noDet | Marburg entry inh | RE007 growth inh | SARS PLP yeast | Cruzain Triton
CCOc1ccc(-c2c(C#N)c(N)nc3sc(C(=O)c4ccccc4)c(N)c23)cc1 | u | -2.7% | x | x | x | 6.2% | -2.0% | x
Cc1noc(C)c1S(=O)(=O)NCCc1csc2nc(-c3ccc(F)cc3)nn12 | -16.9% | x | -13.9%[46.1 µM] | 12.2% | x | x | x | -2.1%
O=C(O)c1cc(Cl)c(Cl)cc1C(=O)N1CCCC1 | x | 1.6% | 11.7% | 4.2% | 4.6% | 11.1% | 2.2% | 3.7%
CCCCNc1ccc(S(=O)(=O)c2cccc([N+](=O)[O-])c2)cc1[N+](=O)[O-] | -16.9% | 10.6% | -4.5% | 2.0% | 4.4% | 11.1% | -12.0% | -8.2%
CCOC(=O)c1ccccc1NC(=O)COC(=O)C(CCSC)NC(=O)COc1ccccc1 (stereo not given) | -0.9% | x | u | x | 1.9%[46.1 µM] | -13.5% | -3.0% | x
O=C(Oc1ccc(-c2cnc3ccccc3n2)cc1)c1ccc(Br)o1 | 33.1%[activator] | -10.4% | u | u | u | -8.3% | 8.8% | -4.8%
CCCn1c(=O)c2sccc2n2c(CCCC(=O)Nc3ccccc3OCC)nnc12 | u | x | -4.1%[46.1 µM] | 2.7% | -29.7%[46.1 µM] | x | x | 0.5%
CCOC(=O)C1CCCN(c2c(C(=O)c3ccccc3)cnc3ccc(OC)cc23)C1 (stereo not given) | u | -1.3% | x | x | x | 0.7% | -3.7% | x
CCOC(=O)c1oc2ccccc2c1NC(=O)COc1cccc(OC)c1 | -20.1% | 3.9% | -2.4% | -0.3% | -14.3% | 20.6% | 1.0% | 6.0%
COc1ccc(CNCCS(=O)(=O)NN2CCOCC2)cc1 | -18.4% | x | 2.0%[46.1 µM] | x | x | -7.0% | 0.4% | x
N#C/C(=C\c1c(Oc2ccc(Cl)cc2)nc2ccccn2c1=O)C(=O)NC1CCS(=O)(=O)C1 (stereo not given) | 20µM* | -22.2% | 3.55µM* | x | u | -4.9% | 0.7% | x
COc1cccc(-c2nc(CS(=O)CC(=O)NCc3ccccc3)c(C)o2)c1 (stereo not given) | 24.6% | -2.1% | x | -17.1% | x | -13.7% | -2.9% | -8.9%
CCOc1cc(N2CCOCC2)c(OCC)cc1NC(=O)c1ccc(F)c(S(=O)(=O)N2CCOCC2)c1 | 0.0% | x | -15.7% | x | -0.5% | -11.6% | -2.0% | x
CCOC(=O)c1cnc(-n2nc(C)cc2C)nc1NCc1ccccc1 | 28.2µM* | -110.1% | u | 9.8% | u | -24.5% | -11.0% | 2.5%
O=C(Nc1ccc(Cl)cn1)c1cc2ccccc2o1 | -27.7% | -36.4% | u | 1.8% | u | 5.0% | -19.2% | -3.8%
O=c1c2ccccc2nc(-c2ccccc2Cl)n1-c1ccc(O)cc1 | u | -4.5% | u | x | u | -2.3% | 1.9% | x
CC(CC(=O)Nc1ccc(S(=O)(=O)Nc2ncccn2)cc1)c1ccccc1 (stereo not given) | 0.1% | 4.3% | 1.7% | x | 6.2%[46.1 µM] | -20.1% | -1.3% | x
O=S(=O)(c1ccc2nc(Nc3ccc(F)cc3)ccc2c1)N1CCCC1 | -4.4% | x | 38.1%[46.1 µM] | -4.1% | x | x | x | 0.9%
O=C(O)C1CCCN1S(=O)(=O)c1cc(Cl)ccc1Cl (stereo not given) | x | 7.7% | u | -10.0% | u | -6.5% | 2.0% | 1.1%
COc1cc(/C=N/NC(=O)c2ccc(CSc3nncn3C)cc2)cc(OC)c1O | -10.6% | x | 0.1% | x | 5.8% | -2.3% | -0.3% | x
CC(C)OC(=O)/C(=C\C=C\c1ccccc1)NC(=O)c1ccccc1 | 7.8% | u | -20.1% | -8.9% | -14.5% | 12.6% | u | -12.0%
Cc1ccc(-c2c(C(=O)O)c3ccccc3[nH]c2=O)cc1 | -12.3% | 1.9% | x | x | x | 19.4% | -0.3% | x
c1ccc(NC2=Nc3ccccc3CC2)cc1 | 31.1%[activator] | -5.2% | u | -12.3% | 0.0% | -17.4% | 1.5% | -7.3%
COc1ccc(N/C=C2\C(=O)CCc3c2oc2cc(Cl)c(O)c(Cl)c32)cc1 | -24.4% | 1.2% | x | x | x | -5.1% | -2.5% | x
CN(C(=O)CCc1nc2ccccc2s1)c1ccccc1 | x | -7.0% | 2.1% | 1.6% | 4.7% | 7.6% | -16.6% | -0.4%

Other records:
SMILES | StopGo reporter | NS1 function inh | LASV entry inh | Cruzain inh noDet | Marburg entry inh | RE007 growth inh | SARS PLP yeast | Cruzain Triton
COc1cc(/C=C/CN2CCN(Cc3ccc(C)o3)C(CCO)C2)ccc1O (stereo not given) | -18.1% | -0.5% | u | x | -5.3%[46.1 µM] | 8.0% | 0.6% | x
COc1ccc(NC(=O)NNC(=O)COc2ccc3cc(Br)ccc3c2)c(OC)c1 | 4.8% | 16.5% | -13.0%[46.1 µM] | x | -7.9%[46.1 µM] | -5.6% | 2.6% | x
CCCCN(C(=O)CSc1nnc(-c2ccco2)o1)c1c(N)n(Cc2ccccc2)c(=O)[nH]c1=O | 0.0% | 7.9% | x | x | x | 8.7% | 0.4% | x
Cc1ccc(NC(=O)CCNS(=O)(=O)c2ccccc2)c(C(=O)c2ccccc2)c1 | -20.0% | -2.0% | -23.5% | -6.8% | -0.4% | -13.1% | -2.8% | -6.9%
O=C(CSCc1c(F)cccc1Cl)NCCc1ccccc1 | 43.4%[activator] | -49.9% | x | x | x | 14.3% | 0.4% | x
CCN(Cc1ccc(OC)c(F)c1)C(=O)CCl | u | x | u | x | u | 11.9% | 0.8% | x
CN1CCc2nc(NC(=O)c3cccc(OC(F)F)c3)sc2C1 | 33.5%[activator] | 6.9% | 1.0% | -15.8% | 10.2% | -10.4% | 2.3% | -1.8%
O=C(OCc1nnc(-c2ccc(Cl)cc2)o1)C12CC3CC(CC(O)(C3)C1)C2 | -1.2% | x | 4.6% | x | 27.7%[46.1 µM] | 7.0% | -0.1% | x
CCOC(=O)c1c(S(=O)(=O)NCC(=O)Nc2ccc(C)cc2)c(C)n(C)c1C | 9.6% | -9.0% | x | x | x | -5.6% | -0.3% | x

Bioassay records as filed in PubChem.
